# High-throughput results (PubChem)
# VDR inh: Inhibitors of the vitamin D receptor (VDR): qHTS; Vitamin D3 receptor (Homo sapiens), P11473; VDR-SRC2-3 peptide fluorescence polarization, 2 h; Potency, µM, inactives show max response, negative = inhibition, most hits filed as inhibitors; 400,000 compounds, 0.93% hits; AID 504847, 2011; active = well fitted inhibition curve with a large enough effect; inconclusive = small, poorly fitted or top-dose-only effect, or another doubt; inactive = no such curve, though single readings can be large or run the other way; note: series mostly up to about 120 µM
# Target sequence (P11473 whole entry, looked up): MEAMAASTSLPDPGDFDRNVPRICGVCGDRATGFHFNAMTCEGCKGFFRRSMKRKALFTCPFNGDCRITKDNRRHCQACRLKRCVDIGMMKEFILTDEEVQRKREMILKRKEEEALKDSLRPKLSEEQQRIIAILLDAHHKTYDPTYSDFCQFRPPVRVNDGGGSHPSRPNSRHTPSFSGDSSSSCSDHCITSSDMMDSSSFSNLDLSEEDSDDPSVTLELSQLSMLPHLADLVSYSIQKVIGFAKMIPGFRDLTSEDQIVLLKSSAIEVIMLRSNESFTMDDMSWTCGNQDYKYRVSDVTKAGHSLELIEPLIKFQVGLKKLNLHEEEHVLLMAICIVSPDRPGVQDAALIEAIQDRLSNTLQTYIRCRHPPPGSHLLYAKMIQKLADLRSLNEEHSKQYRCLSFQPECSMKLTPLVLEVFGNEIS
#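 Fluorescence polarization assay of small-molecule disruption of VDR binding to coregulator peptide SRC2-3. Compounds and controls pin-transferred, then read after 2 h incubation at ambient room temperature.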
# The depositor's hits bear a star; u = inconclusive; [ ] = another dose, or the depositor's remark. % is set by controls: 0 for no effect and ±100 for the full control effect; potency is the fitted concentration of half-maximal effect. The list is partial; the hit share may differ from the screen's.
SMILES,VDR inh
CC1=C(C(=O)OCc2ccccc2)C(c2ccccc2OS(=O)(=O)c2ccc([N+](=O)[O-])cc2)NC(=O)N1CCCC(=O)O (stereo not drawn),-21%
Cc1nc(-n2ncc(C#N)c2N)c2c3c(sc2n1)CCC3,1%
C(#CC1CCCCC1)c1ccc2c(c1)COc1c3ccccc3nn1-2,-17%
NS(=O)(=O)c1ccc(N/C=C\C(=O)c2ccc3ccccc3c2)cc1,0%
CC(=O)Nc1cc(C)c(S(C)(=O)=O)c(C)c1,2%
O=C(Nc1ccc(Cl)c(S(=O)(=O)N2CCOCC2)c1)c1ccccc1-c1ccc(C(F)(F)F)cc1,-8%
CCCn1nnnc1SCC(=O)Nc1cccc(NC(=O)c2ccco2)c1,-21%
CCOC(=O)C1CCN(C(=O)CSc2n[nH]c(-c3ccccc3)n2)CC1,14%
CN(C)c1cccc(/C=C(\C#N)c2ccccc2)c1,-15%
COc1ccc(OC)c(CNc2ccc(F)c(Cl)c2)c1,-6%
O=c1ccn([C@@H]2O[C@H](CO)[C@@H](O)[C@H]2O)c(=O)[nH]1,-3%
O=C(N/N=C\c1ccc(Cl)cc1Cl)c1sccc1-n1cccc1,6%
CCn1ccnc1CN(C)Cc1c(C(=O)N2CCCCCCC2)nc2ccc(Cl)cn12,-3%
Cc1ccc(NC(=O)/C(=C\c2ccc([N+](=O)[O-])cc2)NC(=O)c2ccccc2)cc1,-3%
CCCCN(CCCC)c1cn[nH]c(=O)c1Cl,2%
CCCCCC1CC(CC(C)C(=O)Nc2nncs2)C(=O)O1 (stereo not drawn),-13%
Cc1cc(C(=O)CCC(=O)N(C)CC(=O)Nc2c(Cl)cccc2Cl)c(C)s1,1%
O=C(CSc1nnc(-c2ccco2)c(-c2ccco2)n1)Nc1ccccc1,u
CCOC(=O)c1c(C)[nH]c(C(=O)O)c1C,0%
O=C(CC1CC2CCC1C2)NCc1cccs1 (stereo not drawn),-2%
Cc1nnc(NC(=O)CSc2n[nH]c(-c3ccccc3C)n2)s1,5%
COc1ccccc1Oc1coc2c(CN3CCOCC3)c(O)ccc2c1=O,-7%
COc1cccc(-c2ccc(NC(=O)C3CCCN(Cc4ccc(CO)o4)C3)cc2)c1 (stereo not drawn),-4%
CCOn1c(=O)c(-c2ccc(Br)cc2)[n+]([O-])c2ccccc21,3%
CCOC(=O)c1cccc(NC(=O)NCc2cccn2Cc2ccccc2)c1,1%
# Following part
SMILES,VDR inh
O=C(CCC(=O)Nc1nnc(C2CCCCC2)s1)Nc1ccccc1,13%
Cc1ccc(Cn2nnc3c(=O)[nH]c(C4CCN(S(=O)(=O)c5ccc(F)cc5)CC4)nc32)cc1,-2%
CC(C)C[C@H](NC(=O)c1[nH]cnc1C(=O)N[C@@H](Cc1ccccc1)C(=O)OCc1ccccc1)C(=O)OCc1ccccc1,-6%
CC[C@H](C)[C@H](NC(=O)OCC1c2ccccc2-c2ccccc21)C(=O)O,-15%
O=C(c1c(Cl)nc2sccn12)N1CCN(c2cccc(Cl)c2)CC1,8%
CCOC(=O)c1cc(NC(=O)Nc2nc3ccccc3s2)c(C)nc1C,10%
O=C(Nc1ccc(S(=O)(=O)N2CCN(c3ccccc3)CC2)cc1)c1cccs1,-2%
Cc1sc(N)nc1-c1cccc([N+](=O)[O-])c1,1%
CCC(C)NC(=O)c1csc2c1CCCCC2 (stereo not drawn),-9%
CCOc1ccc(-c2c(C(=O)N/N=C/c3ccc(O)cc3)nnn2-c2nonc2N)cc1,7%
CCN(CC(=O)Nc1c(F)cccc1F)C(=O)c1ccccc1F,-7%
O=C(NCCCCNC(=O)c1ccccc1F)c1ccccc1F,1%
CSCCC(NC(=O)c1ccccc1Cl)C(=O)NCCc1ccccn1 (stereo not drawn),-12%
CNC(=S)Nc1cccc(S(=O)(=O)NCc2ccco2)c1,-25%
CCOC(=O)CNC(=O)N1CCc2ccc(NC(=O)c3ccccc3Cl)cc2C1,-3%
COc1ccc(Cl)cc1NC(=O)CN(C)C(=O)c1cn(-c2ccccc2)nc1-c1cccnc1,7%
CC12CCC(=O)CC1CCC1C2CCC2(C)C1CCC2(O)C(=O)CO (stereo not drawn),-8%
CCOC(=O)Cc1ccc(NC(=O)Nc2ccccc2OCc2cc(=O)n3ccccc3n2)cc1,9%
COC(=O)[C@@H]1C[C@@H]2CC[C@@H](O)C[C@@H]2N1Cc1ccc(Cl)cc1,-8%
CCN(CC)CCCNC(=O)CSc1nc2nc(C)c(Cc3c(F)cccc3Cl)c(C)n2n1,-2%
O=C1CC2C(CC(OC(=O)c3ccc(-c4ccccc4)cc3)C2CO)O1 (stereo not drawn),0%
COc1ccc([N+](=O)[O-])cc1NC(=O)CC1SC(=Nc2cccc(C)c2C)N(/N=C(\C)c2ccc(C)cc2)C1=O (stereo not drawn),-9%
O=C(CN1CCN(Cc2ccccc2Cl)CC1)N/N=C/c1ccco1,3%
CSc1nnc2c3c4c(sc3c(=O)n(-c3ccccc3)n12)CC(C)(C)OC4,25%
CCCOc1ccc(CN(C(=O)Cc2coc3ccc(CC)cc23)C2CCS(=O)(=O)C2)cc1 (stereo not drawn),8%
# New compounds follow.
SMILES,VDR inh
O=S(=O)(c1ccccc1)N1CCN(Cc2cc3c(cc2Br)OCCO3)CC1,-1%
Cc1ccccc1C(=O)NCCSc1ccccc1,-18%
CCN(CC)CCN1C(=O)C(=O)/C(=C(/O)c2c(C)[nH]c(C(=O)OC)c2C)C1c1ccccc1OC (stereo not drawn),6%
O=C1c2cccnc2C(O)N1Cc1ccco1 (stereo not drawn),-7%
C=CCN1C(=O)/C(=C2/Sc3ccc(OC)cc3N2C)SC1=Nc1cccc(O)c1,11%
CCc1ccccc1NC(=O)Cn1c(=O)n(-c2cccc(C)c2)c(=O)c2c1c1cc(OC)ccc1n2C,-1%
O=C(NCc1ccccc1)c1cc(S(=O)(=O)N2CCC3(CC2)OCCO3)ccc1F,28%
COc1ccccc1NC(=O)COc1ccc(C(=O)OCC(=O)N(C(C)C)C(C)C)cc1OC,12%
Cc1ccc(S(=O)(=O)N(C)C)cc1NC(=O)CSc1nc2ccccc2[nH]1,-10%
COCC(=O)N1CCC2(CC1)CCN(C(=O)Nc1cccc(F)c1)CC2,10%
O=C1CC2(CCN(C(=O)c3cccc(F)c3)CC2)Oc2ccccc21,-1%
CCOC(=O)[C@H]1[C@H]2COc3ccc(Br)cc3[C@H]2N2C(=O)CN(Cc3ccc(Cl)cc3)C(=O)[C@@]12C,-3%
N#CC1=C(c2ccc(-c3ccccc3)cc2)COC1=O,53%[activator]
Cc1cc(S(=O)(=O)NCC(c2ccco2)S(=O)(=O)c2cccs2)ccc1F (stereo not drawn),-4%
O=C(NCc1ccccc1Cl)c1ccc(Nc2nc3ccccc3n3nnnc23)cc1,-16%
COC(=O)C(CCSC)NC(=O)c1cc2c(n(-c3ccccc3)c1=O)CCCC2=O (stereo not drawn),3%
CC(C)CN1CCc2nc(N3CCN(C)CC3)ncc2C1,7%
C/C(CC(=O)Nc1ccc(N(C)C)cc1)=N\NC(=O)c1ccccn1,4%
Cc1ccc(C(=O)Nc2sc3c(c2C(=O)O)CCCCC3)o1,-17%
O=C(Nc1ccccc1)Nc1ccc(S(=O)(=O)N2CCCCC2)cc1,2%
Cc1cc(C)c(NC(=O)COC(=O)C23CC4CC(CC(O)(C4)C2)C3)c(Cl)c1,1%
C=C1CCN([C@H](C(=O)NCc2ccc(Cl)cc2)C(C)C)S(=O)(=O)c2ccccc21,0%
COC(=O)CN(c1cccc(C)c1)S(=O)(=O)c1ccccc1,-3%
O=C(N/N=C/c1ccc(Cl)cc1)c1cc(-c2cccnc2)nc2ccccc12,0%
CN(Cc1ccccc1)C(=S)Nc1cccnc1,-15%
# (more compounds)
SMILES,VDR inh
O=C(/C=C/c1cccc([N+](=O)[O-])c1)c1ccc2c(c1)OCCO2,u
CC1=C(C(=O)O)N2C(=O)[C@@H](NC(=O)[C@H](N)c3ccccc3)[C@H]2SC1,u
Cc1nnc(SCC(=O)N(CC(C)C)C2CCS(=O)(=O)C2)s1 (stereo not drawn),-27%
O=C(CCCC(=O)NN=Cc1cccc(O)c1)NN=Cc1cccc(O)c1,-13%
O=C1C2C3C=CC(C2C(=O)N1c1nccs1)C1C(=O)N(c2nccs2)C(=O)C31 (stereo not drawn),-5%
CCn1ccc2cc(S(=O)(=O)N3CCCN(C(=O)Nc4ccc(C)c(F)c4)CC3)ccc21,3%
CN(C(=O)c1cncc(Br)c1)C1C2CC3CC(C2)CC1C3 (stereo not drawn),10%
N#Cc1cn(Cc2cccc(Cl)c2)c2ccccc12,-7%
CC(=O)NC1C(OC2OC(CC(O)C3OC([N+]4=CCC(=O)NC4=O)C(O)C3O)C(O)C(O)C2NC(=O)/C=C/CCCCCCCCC(C)C)OC(CO)C(O)C1O (stereo not drawn),u
NS(=O)(=O)c1ccc(NC(=S)Nc2ccc(Br)c(Cl)c2)cc1,9%
CCCS(=O)(=O)c1c(S(=O)(=O)CCC)c2c(C)cccn2c1C(=O)N/N=C/c1cc(O)cc(O)c1,14%
NC(N)=Nc1nc(-c2ccccc2)c2ccccc2n1,7%
O=C(Nc1ccc2ncccc2c1)c1cc(Cl)ccc1Cl,0%
CC(C)(CNC(=O)c1cccc(S(=O)(=O)Nc2ccc(Br)cc2)c1)N1CCOCC1,0%
CCCCNC(=O)Nc1ccccc1Br,7%
Cc1ccc2nc(N/N=C/c3ccco3)cc(C)c2c1,5%
CC(C)N(Cc1c(O)ccc2c(=O)c(-c3ccc(Cl)cc3)coc12)C(C)C,-7%
O=C(Nc1ccc(S(=O)(=O)N2CCCCCC2)cc1)C1CCCO1 (stereo not drawn),-11%
COc1ccccc1C(=O)COC(=O)c1c(-c2ccccc2)noc1C,15%
CCN1C(=O)[C@H]2[C@@H](c3ccc(-c4cccc(Cl)c4)cc3)N[C@@](Cc3ccccc3)(C(=O)OC)[C@H]2C1=O,-3%
Cc1ccc(N=CC2=C(O)CC(c3ccc(Cl)cc3)CC2=O)cc1 (stereo not drawn),5%
O=C(c1ccco1)c1cn(CCOc2ccc(Cl)cc2)c2ccccc12,-6%
Nc1nnc(SCC(=O)Nc2ccc3c(c2)OCCO3)s1,23%
O=[N+]([O-])c1ccc(Cl)c2c1C1C=CCC1C(c1ccccn1)N2 (stereo not drawn),u
Cn1c(SCC(=O)N/N=C/c2ccccn2)nnc1-c1ccccc1,18%

# An excerpt of these results, with bars between the fields:
compound | VDR inh
NS(=O)(=O)c1ccc(NC(=S)Nc2ccc(Br)c(Cl)c2)cc1 | 9%
CCCS(=O)(=O)c1c(S(=O)(=O)CCC)c2c(C)cccn2c1C(=O)N/N=C/c1cc(O)cc(O)c1 | 14%
NC(N)=Nc1nc(-c2ccccc2)c2ccccc2n1 | 7%
O=C(Nc1ccc2ncccc2c1)c1cc(Cl)ccc1Cl | 0%
CC(C)(CNC(=O)c1cccc(S(=O)(=O)Nc2ccc(Br)cc2)c1)N1CCOCC1 | 0%
CCCCNC(=O)Nc1ccccc1Br | 7%
Cc1ccc2nc(N/N=C/c3ccco3)cc(C)c2c1 | 5%
CC(C)N(Cc1c(O)ccc2c(=O)c(-c3ccc(Cl)cc3)coc12)C(C)C | -7%
O=C(Nc1ccc(S(=O)(=O)N2CCCCCC2)cc1)C1CCCO1 (stereo not drawn) | -11%
COc1ccccc1C(=O)COC(=O)c1c(-c2ccccc2)noc1C | 15%
CCN1C(=O)[C@H]2[C@@H](c3ccc(-c4cccc(Cl)c4)cc3)N[C@@](Cc3ccccc3)(C(=O)OC)[C@H]2C1=O | -3%
Cc1ccc(N=CC2=C(O)CC(c3ccc(Cl)cc3)CC2=O)cc1 (stereo not drawn) | 5%
O=C(c1ccco1)c1cn(CCOc2ccc(Cl)cc2)c2ccccc12 | -6%
Nc1nnc(SCC(=O)Nc2ccc3c(c2)OCCO3)s1 | 23%
O=[N+]([O-])c1ccc(Cl)c2c1C1C=CCC1C(c1ccccn1)N2 (stereo not drawn) | u
Cn1c(SCC(=O)N/N=C/c2ccccn2)nnc1-c1ccccc1 | 18%

# Further entries follow.
SMILES,VDR inh
Cc1ccc(CNC(=O)CNC(=O)[C@@H]2Cc3ccccc3CN2)cc1,3%
COC(=O)c1c(NC(=O)C2CCCCC2)sc2c1CC(C)(C)NC2(C)C,-11%
O=C(CN1CCC(O)(c2ccccc2F)CC1)NCCc1c[nH]c2ccccc12,7%
Cc1cc(C(=O)O)ccc1NCc1cccnc1,14%
O=C1NC(c2ccc(Cl)cc2)=COc2ccccc21,-11%
CC(C)(C)OC(=O)NCCCCCNC(=O)c1[nH]cnc1C(=O)Nc1cccc(Cl)c1,-10%
CNC[C@@H]1Oc2c(NC(=O)Nc3ccc(F)cc3)cccc2C(=O)N([C@H](C)CO)C[C@@H]1C,-5%
O=C(Cc1ccccc1)Nc1ccc(SC(F)F)cc1,-15%
O=C(CN1C(=O)COc2ccc(S(=O)(=O)N3CCCC3)cc21)N1CCN(c2ccccc2F)CC1,2%
CC(C)N1CC(C(=O)Nc2ccc(Br)c(Cl)c2)CC1=O (stereo not drawn),1%
Cc1ccc(C)c(Cn2c(C3CC(=O)N(c4ccccc4C)C3)nc3ccccc32)c1 (stereo not drawn),13%
O=C(/C=C/c1ccc(Br)o1)NCCCN1CCOCC1,-10%
COc1cc(OC)cc(C(=O)NCC(=O)NCc2ccccn2)c1,5%
CC(C)Cn1c(-c2ccccc2)nc(=S)c2c1CCCC2,11%
CC1=C(C(=O)Nc2ccc(Cl)cc2)C(c2ccccc2)n2ncc(C(=O)Nc3ccccc3)c2N1 (stereo not drawn),4%
CC(CCc1ccccc1)NS(=O)(=O)c1ccccc1 (stereo not drawn),4%
CC1Cc2ccccc2N1C(=O)CN(C)CC(=O)Nc1ccc(F)cc1 (stereo not drawn),5%

# 2 entries from above, tab-delimited.
canonical_smiles	VDR inh
O=C1NC(c2ccc(Cl)cc2)=COc2ccccc21	-11%
CC(C)(C)OC(=O)NCCCCCNC(=O)c1[nH]cnc1C(=O)Nc1cccc(Cl)c1	-10%
